Compound activity as filed in PubChem.
Menin-MLL FL inh – displaces fluorescein MLL peptide from human menin; Fluorescence polarization, fluorescein-MLL peptide displacement from menin; FP activity change, % at 61.4 µM; 290,000 tested, under 10 active; inconclusive = falling polarisation curve, or a change in total fluorescence; inactive = total fluorescence flat and polarisation flat or rising; no compound was filed as active; the % refers to the polarisation; negative = inhibition;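 further: % of control where 0% means no effect; inhibitors lower the polarisation; unlabelled MLL peptide was the positive control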
ClpP mod – qHTS Assay for Activators of ClpP; Potency, µM (series often up to 57.5 µM), inactives show top-dose activity change, negative = active; purified B. subtilis ClpP, FRET peptide cleavage, 20 min; actives 1.9% (n = 340,000); active = well fitted falling curve with a large enough effect; inconclusive = small, poorly fitted or top-dose-only effect; inactive = no such curve, though single readings can be large or run the other way; further: potency means the concentration at half of the fitted maximal effect; the source files actives as falling curves though it sought activators and does not explain the sign; nearly all actives have a fitted effect of over 65% in size; many hits overshoot -100%
Target sequence (P80244 whole entry, looked up): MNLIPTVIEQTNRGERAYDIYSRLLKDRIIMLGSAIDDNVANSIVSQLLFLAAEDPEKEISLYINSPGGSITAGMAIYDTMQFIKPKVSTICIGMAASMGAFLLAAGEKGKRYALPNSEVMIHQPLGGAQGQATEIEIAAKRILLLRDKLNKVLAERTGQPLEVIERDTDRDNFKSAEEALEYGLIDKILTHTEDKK
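FRET quenching reversal measured ClpP activation: 10 microg/mL B. subtilis ClpP at pH 8 with the FRET-FV decapeptide, read at 430 nm after 320 nm excitation. The 20-min minus 0-min signal was scaled between DMSO/no-enzyme wells and ADEP (5.8 microM final).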
gsp antagonist – gsp mutant antagonism | Potency, µM (titrated, usually from 76.9 µM), without a hit: at the top dose activity change, negative = inhibition, most hits filed as inhibitors | gsp-mutant cells, cAMP HTRF, 30 min; control for the full effect not named in the record | actives 0.4% (n = 340,000); active = falling curve of any shape with a large fitted effect; inconclusive = falling curve, mostly with a smaller effect; inactive = flat or rising curve; cell line not stated here;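 further: intracellular cAMP measured with PDE inhibitor Ro 20-1724 present during compound exposure; potency means the concentration at half of the fitted maximal effect; on the % scale 0 is the no-effect control and ±100 the full control effect; nearly all actives have a fitted effect of over 65% in size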
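HTRF cAMP measurement after 30 min RT detection following 30 min, 37C compound treatment alongside […] (added as 300 uM solution) in G418-selected cells seeded at 2000/well and grown 16–24 h.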
TRPV1 PAM – potentiators of human vanilloid receptor 1 (TRPV1); TRPV1-expressing cells, Fluo-8 calcium influx, capsaicin EC20 potentiation; host cell line not named in the record; control for the full effect not named in the record; AID 540277; potentiation, % at 8.33 µM; actives 0.02% (n = 320,000); Q8NER1; active means potentiation above 80%; inconclusive means 30% to 80%; inactive means below 30%; further: 0% is about no effect
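Cells expressing TRPV1 were dye-loaded with Fluo-8 and read kinetically: 10 s baseline, 3 min after compound (agonist portion), then 2 min after EC20 capsaicin (allosteric enhancer portion). Calcium-bound dye fluorescence at 480/520 nm.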
Sfp inh – blocks B. subtilis Sfp PPTase activity; Potency, µM, for inactives: max response, negative = inhibition, hits mostly inhibitors; Q9F4F7; actives 3.5% (n = 310,000); Biochemical Sfp PPTase activity, qHTS; active means well fitted inhibition curve with a large enough effect; inconclusive means small, poorly fitted or top-dose-only effect, or another doubt; inactive means no such curve, though single readings can be large or run the other way;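 further: the enzyme is Sfp with the accession as filed and its product quenches rhodamine fluorescence; potency means the concentration at half of the fitted maximal effect; 0% = enzyme reaction without inhibitor and -100% = no enzyme wells; top concentration of the series not given in the record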
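After 15 min at room temperature with compound, 15 nM Sfp received 5 uM rhodamine-CoA plus 12.5 uM BHQ-2-ybbR (50 mM Hepes pH 7.6, 10 mM MgCl2). Rate came from the fluorescence difference over 30 min, ex 525/em 598 nm.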
TRPML1 inh – blocks the human TRPML1 channel | Q9GZU1 | TRPML1-inducible cells, Ca2+ dye fluorescence, FDSS; hits give low values; inhibition of EC80 agonist-evoked calcium signal | activity change, negative = inhibition, % (concentration not given with the values) | actives 0.02% (n = 390,000) | AID 624415; in the data active means activity change below about -50%; inconclusive means about -30% to -50%; inactive means above about -30%;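 further: stimulus is agonist 54-4 at its EC80 concentration; on the % scale 0 is the no-effect control and ±100 the full control effect; compound concentration not given in the record; the text of the record puts the active cut at -80%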
Target sequence (Q9GZU1 whole entry, looked up): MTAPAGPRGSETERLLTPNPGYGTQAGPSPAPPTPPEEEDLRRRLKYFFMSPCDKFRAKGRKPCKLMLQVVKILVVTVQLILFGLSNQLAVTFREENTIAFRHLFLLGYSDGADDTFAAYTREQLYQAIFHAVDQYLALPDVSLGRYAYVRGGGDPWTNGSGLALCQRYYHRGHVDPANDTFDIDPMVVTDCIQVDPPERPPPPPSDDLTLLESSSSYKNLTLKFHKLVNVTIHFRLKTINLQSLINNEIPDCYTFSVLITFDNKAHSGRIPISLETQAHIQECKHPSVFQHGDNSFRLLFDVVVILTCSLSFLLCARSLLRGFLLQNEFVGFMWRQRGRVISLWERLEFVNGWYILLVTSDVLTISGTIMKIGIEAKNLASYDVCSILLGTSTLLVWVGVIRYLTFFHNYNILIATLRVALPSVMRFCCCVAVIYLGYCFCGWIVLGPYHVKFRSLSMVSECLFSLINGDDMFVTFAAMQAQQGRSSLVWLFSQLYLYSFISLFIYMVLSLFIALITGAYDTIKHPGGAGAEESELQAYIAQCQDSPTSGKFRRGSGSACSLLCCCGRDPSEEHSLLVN
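Calcium fluorescence in TRPML1-DL cells induced overnight with Tet: a 110 s read after compound pin addition, then a 110 s antagonist read after challenge with 54-4 at 4 uM final (EC80).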
gsp ag – activates gsp, the McCune-Albright syndrome mutation; actives 0.13% (n = 340,000); gsp mutant cells, cAMP HTRF, 30 min; control for the full effect not named in the record; Potency, µM (doses to about 76.9 µM), for the others: at the highest dose activation (cAMP increase), usual class: activators; active = well fitted activation curve with a large enough effect; inconclusive = small, poorly fitted or top-dose-only effect, or another doubt; inactive = no such curve, though single readings can be large or run the other way; cell line not stated here;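 further: phosphodiesterase inhibitor Ro 20-1724 added with compounds to block cAMP breakdown; potency means the concentration at half of the fitted maximal effect; nearly all actives have a fitted effect of over 60% in size; about a fifth of the inactives were tested at one dose only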
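Cells stably selected in G418 were plated at 2000/well, grown 16-24 hr, then given compounds in DMSO with the PDE inhibitor […] (300 uM solution added) for 30 min at 37C; cAMP was read by HTRF.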
Active calls of the source: *; ? = inconclusive; nt = no result given; & = joins results of further samples; ! = repeats disagree; [ ] = dose if it differs, or a comment. An excerpt; the hit share may differ from the screen's.

SMILES	Menin-MLL FL inh	ClpP mod	gsp antagonist	TRPV1 PAM	Sfp inh	TRPML1 inh	gsp ag
Cc1oc(-c2ccc(Cl)cc2)nc1CS(=O)CC(=O)N1CCC2(CC1)OCCO2 (stereo not given)	-5.4	?	-5%	-14	4%	-1	-25%
N#Cc1cn(C2OC(CO)C(O)C2O)c2ncnc(N)c12 (stereo not given)	nt	-14%	8%	nt	nt	2	0%
CCCCCn1c(=O)c(C(=O)Nc2nc(CC(=O)OCC)cs2)c(O)c2ccccc21	nt	nt	nt	-6	7%	-4	0%[15.4 µM]
O=C1NC(=O)C(Cc2ccccc2)(Cc2ccccc2)C(=O)N1	nt	1.5%	5%	nt	nt	16	-47%[inhibitor]
CCC(C)NC(=O)CN1C(=O)CN=C(c2ccccc2)c2ccccc21 (stereo not given)	4.4	nt	6%	-3	17%	-10	-14%[15.4 µM]
CC(=O)Nc1ccc(S(=O)(=O)N2Cc3ccccc3-n3nncc3C2)cc1	nt	-0.8%	nt	nt	nt	7	?
CCC(=O)O[C@H]1CC[C@H]2[C@@H]3CCC4=CC(=O)CC[C@]4(C)[C@H]3CC[C@]12C	-0.3[24.8 µM]	-0.3%	-13%	nt	?	18	nt
C(=NC12CN3CN(CN(C3)C1)C2)c1cccs1	-0.1	0.4%	6%	-4	1%	6	-6%
O=C1NC(=O)C(Nc2ccc(Cl)c(Cl)c2)C(=O)N1	nt	1.2%	-1%	nt	nt	10	24%[15.4 µM]
COC(=O)C1=C(c2ccccc2)C[C@@H]2CC[C@H]1N2C(=O)N1CCOCC1	nt	1.1%	0%	nt	nt	0	-2%
CC1CCC[C@H](O)CCCCCc2cc(O)cc(O)c2C(=O)O1 (stereo not given in full)	1.3&-3.1	0.2%	-11%	-3&8	26%&17%	18	nt
CC12CCC3C(CC=C4CC(O)CCC43C)C1CC(=CN1CCOCC1)C2=O (stereo not given)	nt	nt	-5%	nt	nt	25	?
COc1cccc(-n2c(=S)[nH]c3ccccc3c2=O)c1	-2.5	nt	2%	12	17%	8	-55%[inhibitor]
Cn1ncc(Cl)c1C(=O)N1CCC2(CC1)OCCO2	-1.9	0.6%	5%	7	12%	-7	?
Nc1ccc2cc(Br)ccc2c1	-6.5	nt	3%	-3	-15%	-2	5%[15.4 µM]
Cn1c(O)c(C=Nc2ccc(Br)cc2)c(=O)n(C)c1=O	-3.0	-0.3%	0%	14	11%	7	16%[15.4 µM]
O=c1[nH]c(=S)n(C2CC2)c(O)c1C=Nc1cccc(C(F)(F)F)c1	4.6	0.9%	-11%	3	?	4	-7%
CC(N)Cc1c[nH]c2ccc(O)cc12 (stereo not given)	3.5	-3.2%	-12%	nt	4%	4	nt
CC12CN3CC(C)(CN(C1)C3c1ccco1)C2=O (stereo not given)	-0.7	0.2%	5%	-13	3%	0	-33%[inhibitor]
CC(O)(CS(=O)(=O)c1ccccc1)C(=O)Nc1cccc(C(F)(F)F)c1 (stereo not given)	0.8	-1.2%	5%	nt	14%	35	?
CSc1ccc(CNC2CN3CCC2CC3)cc1 (stereo not given)	-0.4	0.4%	-4%	2	14%	4	13%
COc1cc(O)cc2c1C(=O)OC(C)CCCC(=O)CCC/C=C\2 (stereo not given)	-0.6	0.0%	9%	-1	-15%	-6	-2%[15.4 µM]
COc1ccccc1N1CCN(Cc2ccc(F)cc2)CC1	-5.5	nt	8%	-4	6%	-10	1%
O=C(CF)N(O)c1ccc(C=Cc2ccccc2)cc1	nt	-2.6%	8%	nt	nt	26	-16%
Cc1cccc(N2C(=O)CC(=O)NC2=O)c1	14	0.8%	-17%	4	-13%	-21	0%
Cc1ccc(S(=O)(=O)Oc2ccccc2C=C2C(=O)N(C)C(=O)N(C)C2=O)cc1	-0.7	-3.6%	0%	-6	79µM*	11	4%
CCC(C)N=Cc1c(O)n(-c2ccccc2)c(=O)[nH]c1=O (stereo not given)	0.5	-0.6%	3%	-5	-29%	53	1%
CCOC(=O)c1cccc(C2=C(CNC(=O)c3ocnc3C)[C@H]3CC[C@@H](C2)N3Cc2ccccc2)c1	nt	-2.8%	nt	nt	nt	10	2%
N#CCC(=O)NN1Cc2ccccc2C1=N	1.9	0.6%	7%	4	11%	11	19%
O=C(Nc1ccccc1)c1c(O)c2c(n(Cc3ccco3)c1=O)CCCC2	1.1	nt	?	17	3%	-9	0%
C1CN(P2(N3CC3)=NP(N3CC3)(N3CC3)=NP(N3CC3)(N3CC3)=N2)CCO1 (stereo not given)	nt	0.0%	nt	nt	nt	-12	-25%
Cc1cccc(OP(N)(N)=O)c1C	5.2	nt	2%	3	16%	4	-2%[15.4 µM]
Cc1nc2ccc(Br)cc2c(=O)n1-c1ccc([N+](=O)[O-])c(C(F)(F)F)c1	-0.7	nt	3%	2	-14%	15	7%[15.4 µM]
CCCCCSc1cc(OC)c(CCN(C)C)cc1OC	-1.9	-5.1%	-4%	-9	-12%	-4	0%
O=C(O)Cn1cc(/C=C2\C(=O)NC(=O)N(c3ccc(F)cc3)C2=O)c2ccccc21	?	nt	nt	17	-4%	nt	nt
COC(=O)N(C)c1ccc(C(O)(C(=O)OC)C(F)(F)F)cc1 (stereo not given)	4.7	-0.4%	-4%	7	18%	-10	-15%
FC(F)(F)c1ccccc1CCN1CCNCC1	3.7	0.7%	19%	?	-8%	-20	?
O=c1[nH]c2ccccc2n1C1CCN(CCCC(c2ccc(F)cc2)c2ccc(F)cc2)CC1	2.6	-1.0%	-20%	-9	45µM*!	-5	nt
S=P(NCCSCc1ccccc1)(N1CC1)N1CC1	nt	nt	6%	nt	nt	-6	-17%
O=c1[nH]c(=S)[nH]c(O)c1N=Nc1ccc2c(c1)OCCO2	?	nt	-25%	-7	?	-6	1%[15.4 µM]
CCC(=O)C(CCN1CCOCC1)(c1ccccc1)c1ccccc1	nt	nt	3%	nt	nt	-5	26%
CCC(C)N1C(=O)/C(=C\c2cnc(N(C)C)nc2)C(=O)NC1=S (stereo not given)	?	nt	-14%	11	50µM*	0	-20%[15.4 µM]
COc1ccc(OCC(=O)N2CCCC(N3CCN(c4ccccc4C)CC3)C2)cc1 (stereo not given)	nt	-2.3%	-11%	-6	-2%	3	0%
O=C(O)[C@@H]1C[C@H]2C[C@@H](CP(=O)(O)O)CC[C@H]2CN1	?	nt	nt	nt	-5%&5%	26	nt
COC(=O)C1=C(c2ccc(OCc3ccccc3)cc2)C[C@@H]2CC[C@H]1N2C(=O)NC1CCN(Cc2ccccc2)CC1	nt	-7.5%	-8%	-2	nt	-8	nt
COc1ccc(C(=O)Nc2cccc(S(=O)(=O)NCc3ccco3)c2)cc1	nt	-3.1%	-14%	nt	nt	-7	1%
CCCCCCCC(=O)NC(Oc1ccccc1[N+](=O)[O-])C(Cl)(Cl)Cl (stereo not given)	-2.1	0.9%	-9%	15	5%	5	-91%[inhibitor]
CN(C(=O)c1ccco1)C1(c2ccccc2Cl)CCCCC1=O (stereo not given)	1.4	-4.4%	10%	8	12%	10	-12%
O=c1c2ccccc2nc(-c2cccs2)n1-c1ccccc1	-0.8	29%	-13%	nt	8%	12	-14%
Cn1cc([N+](=O)[O-])c(C(=O)Nc2ccc3c(C(F)(F)F)cc(=O)oc3c2)n1	nt	-7.4%	-5%	1	16%	24	29%
O=C1NC(=O)N(c2ccccc2)C(=O)/C1=C/c1ccc(Sc2ccccc2)o1	?	0.6%	-3%	-5	22µM*	13	?
Cc1ccc(CN2C3CCCC2CC(NC(=O)Nc2cccc(F)c2)C3)cc1 (stereo not given)	-6.0	1.5%	3%	-9	5%	0	?
CCOC(=O)C(C)(CC)NC(=O)CSP(=S)(OCC)OCC (stereo not given)	0.3	1.4%	-2%	-5	-18%	-5	-61%[inhibitor]
COc1ccc(NC(=O)Nc2cccc3cccnc23)cc1	0.0	-0.8%	?	nt	-14%	-13	-25%
COc1ccc(CCNCc2cccn2C)cc1OC	-2.3	0.2%	10%	1	4%	4	-42%[inhibitor]
COC(=O)c1c(C)[nH]c(C(=O)C(C)[N+]23CCN(CC2)CC3)c1C (stereo not given)	0.0	nt	15%	-2	10%	26	10%[15.4 µM]
O=C(Nc1ccccc1)NC1CC2CCC(C1)N2 (stereo not given)	3.0	4.2%	6%	?	13%	11	25%
CC1NC(=O)NC(=O)C1Br (stereo not given)	nt	0.8%	6%	nt	nt	-10	-1%
CN1CCN(Cc2ccc3ccccc3c2)CC1	-4.0	0.7%	8%	?	?	49	3%
CN1C(=O)C(Cc2nc3ccccc3c(=O)n2-c2ccccc2)c2ccccc21 (stereo not given)	7.3	0.7%	35µM*	-2	-7%	-9	-4%
(cont.)
SMILES	Menin-MLL FL inh	ClpP mod	gsp antagonist	TRPV1 PAM	Sfp inh	TRPML1 inh	gsp ag
COC(=O)C1=C(c2ccc3ccccc3c2)C[C@@H]2CC[C@H]1N2C(=O)NCCO	nt	-5.6%	-1%	-1	nt	-19	-34%[inhibitor]
Cn1c(O)c(C=Nc2ccc(N3CCOCC3)cc2)c(=O)n(C)c1=S	?	nt	-5%	-1	-5%	8	15%[15.4 µM]
COc1ccc(/C=C2\Oc3cc(OC(=O)N4CCOCC4)ccc3C2=O)c(OC)c1	?	nt	-5%	nt	10%	5	-5%[15.4 µM]
CCN(CC)c1ccc(C=C2C(=O)N(C)C(=S)N(C)C2=O)o1	?	-1.1%	1%	-12	-17%	10	-9%
CCCCn1c(N)c(C(=O)OCCOC)c2nc3ccccc3nc21	-0.3	nt	19%	?	1%	-11	3%[15.4 µM]
O=C(O)C1C2CCC(O2)C1C(=O)Nc1ccc(Cl)cc1 (stereo not given)	-1.9	nt	5%	5	-13%	-20	-15%
Cc1ccc(S(=O)(=O)NP(=O)(Oc2ccccc2)Oc2ccccc2)cc1	-0.7	0.5%	1%	6	22%	-9	3%
Cc1nc2ccc(Cl)cc2c(=O)n1-c1cccc(Cl)c1	-7.0	-1.2%	-6%	4	6%	8	-1%[15.4 µM]
Cc1ccccc1N1C(=O)/C(=C/c2ccco2)C(=O)NC1=S	?	nt	nt	5	20µM*	nt	nt
